MrgX1 antagonist = human MrgX1 receptor antagonism, primary screen; B-score at 10 µM; MRGX1-HEK293 calcium flux, Fluo-4, BAM8-22 antagonism; hits give low values; Q96LB2; 1.3% of 310,000 active; AID 588676;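 active means calcium-response B-score plate-corrected more than 3 library SD below zero, starting fluorescence within 5 deviations, no agonist response on first addition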;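 further: peak minus trough fluorescence over baseline after final BAM8-22 challenge near maximal dose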
Target sequence (Q96LB2 whole entry, looked up): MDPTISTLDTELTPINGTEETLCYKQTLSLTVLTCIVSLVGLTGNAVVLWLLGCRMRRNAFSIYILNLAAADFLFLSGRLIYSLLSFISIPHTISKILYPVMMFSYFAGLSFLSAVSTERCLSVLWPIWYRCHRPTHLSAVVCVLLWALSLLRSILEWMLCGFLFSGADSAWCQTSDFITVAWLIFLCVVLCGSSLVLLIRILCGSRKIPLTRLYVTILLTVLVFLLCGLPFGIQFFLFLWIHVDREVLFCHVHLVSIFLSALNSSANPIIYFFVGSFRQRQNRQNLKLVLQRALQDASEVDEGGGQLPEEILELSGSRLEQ
IEC-6 cytotox = kills IEC-6 intestinal cells in KLF5 counter-screen; inhibition, % at 5 µM; 0.78% of 290,000 active; AID 1825; IEC-6 cytotoxicity, luminescence viability; in the data active means inhibition above about 22%;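 further: 0% = plate median of test compound wells and 100% = cytotoxic reference compound wells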
TRPC6 act = mouse TRPC6 channel activation. Q61143. HEK293-TRPC6 membrane potential dye fluorescence; hits give high values. B-score at 10 µM. 0.13% of 310,000 active. AID 2550;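 active means B-score of the integrated fluorescence ratio above library mean plus 3 SD, and starting fluorescence ratio within library mean plus 5 SD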;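 further: higher score means more depolarization so channel activation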
TRPC4 PAM = TRPC4 (mouse) allosteric potentiation; Q9QUQ5; HEK293 TRPC4beta/mu-opioid, DAMGO EC20, Fluo-4 Ca2+ flux; hits give high values; B-score at 10 µM; 0.42% of 310,000 active;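 active means B-score of calcium response area above 5 SD of library B-scores, with initial fluorescence ratio within 5 SD of library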;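 further: B-score of integrated fluorescence ratio over time as area under calcium response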
TRPC4 agonist = TRPC4 (mouse) channel activation. Q9QUQ5. HEK293 TRPC4beta/mu-opioid, Fluo4 calcium fluorescence; hits give high values. B-score at 10 µM. 0.49% of 310,000 active. AID 2237;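 active means B-score above 5 SD of library B-scores, and initial fluorescence ratio not above library mean plus 5 SD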;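 further: positive B-score marks a calcium rise read as TRPC4 activation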
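Assay system: HEK293 stable line with TRPC4beta plus mu-opioid receptor; schedule: 45 min room-temperature Fluo4 loading, 110 s read; technique: kinetic Fluo4 calcium fluorescence; evaluation: integrated baseline-normalised fluorescence ratio, converted to per-well B score; controls: buffer (low) and maximal DAMGO (high)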
TRPC4 inh = blocks the mouse TRPC4 cation channel | Q9QUQ5 | HEK293 TRPC4beta/mu-opioid, DAMGO-evoked Fluo4 calcium flux; hits give low values | B-score at 10 µM | 0.39% of 300,000 active | AID 2247;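 active means B-score over 3 SD under the library average, no early fluorescence shift, positive overall ratio signal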
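Material: HEK293 cells with stable TRPC4beta plus mu-opioid receptor expression; probe or stimulus: DAMGO in two steps, submaximal then maximal; technique: Fluo4 calcium fluorescence by kinetic imaging, 5 s 1 Hz baseline; measure: integrated fluorescence ratio relative to baseline, converted to per-well B score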
SKKanGAS inh = inhibitors of SKKanGAS S. pyogenes growth in kanamycin (SK-promoter or general growth effect) | BacTiter-Glo, 6 h | inhibition, % at 7.5 µM | 1.3% of 300,000 active | AID 1662;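 active means mean replicate score, as percent of positive control median, at least 50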;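 further: strain carries kanamycin resistance gene driven by streptokinase promoter and grows in 40 µg/ml kanamycin; loss of luminescence reflects streptokinase promoter inhibition or plain growth inhibition; 0% = median of DMSO wells and 100% = positive control at its reference dose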
KLF5 inh = inhibitors of KLF5 expression. DLD-1 KLF5 promoter-luciferase reporter, luminescence. inhibition, % at 5 µM. 0.23% of 290,000 active;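 active means inhibition above a per-plate limit of that plate's mean compound inhibition plus 3 SD, cut at about 60% in these data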;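 further: 0% = DMSO wells and 100% = LY294002 at 200 µM; higher means less KLF5 promoter-driven luciferase light; inactives centre near -14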
aSyn UTR inh = 5' untranslated region of α-synuclein, MLPCN primary screen. inhibition, % (tested at 7.5 µM). AID 1813. 0.82% of 300,000 active. alpha-synuclein 5'UTR reporter, inhibitor activity; in the data active means inhibition above about 60%;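 further: H4 neuroglioblastoma cells stably carrying SNCA 5'UTR luciferase fusion; 0% = DMSO wells and 100% = positive control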
TRPC6 inh = mouse TRPC6 channel inhibition. 1.1% of 310,000 active. B-score at 10 µM. HEK293-TRPC6, membrane potential dye, ACh-evoked depolarization; hits give low values. Q61143;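 active means B-score under library mean minus 3 SD, initial fluorescence not abnormally high, positive integrated signal ratio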;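 further: B-score derived from integrated fluorescence ratio over the kinetic read; more negative B-score means stronger inhibition of depolarization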
Numbers without * were called inactive; i = inactive; nt = not tested or not shown; & = joins results of further samples. An excerpt; the hit share may differ from the screen's.

entry | Structure | TRPC4 inh | SKKanGAS inh | TRPC6 inh | KLF5 inh | TRPC4 PAM
1 | CC(C)c1nc2n[nH]c(N)c2c2c1CCC2 | i | 2 | i | 7 | i
2 | Cc1oc2cc(O)cc(C)c2c(=O)c1-c1cnn(-c2ccccc2)c1 | i | 17 | i | -38 | i
3 | COc1cc2[nH]c3c(=O)n(CCN(C(C)C)C(C)C)cnc3c2cc1OC | i | -1 | i | 4 | i
4 | CCCC(CCC)C(=O)OC1C[C@H]2CC[C@@H](C1)[N+]2(C)C (some centres undefined) | i | 17 | -8.7* | -3 | i
5 | CCCC(=O)Nc1sc2c(c1C#N)CCCC2 | i | -2 | i | -42 | i
6 | O=C(Nc1nccs1)NC(C(F)(F)F)C(F)(F)F | i | -16 | i | -2 | i
7 | CCOc1cccc(C2C(C#N)=C(N)Oc3cc(C)oc(=O)c32)c1OCC (centres undefined) | i | 5 | i | -4 | i
8 | CCNc1sc(C(=O)c2cccs2)c(N)c1C#N | i | -10 | i | -28 | i

entry | TRPC4 agonist | TRPC6 act | aSyn UTR inh | MrgX1 antagonist | IEC-6 cytotox
1 | i | i | 23 | i | 4
2 | i | i | -23 | i | -2
3 | i | i | -10 | i | -5
4 | i | i | -25 | i | -8
5 | i | i | -43 | i | 2
6 | i | i | 4 | i | 5
7 | i | i | -12 | i | 0
8 | i | i | -9 | i | -3

Continued.
entry | Structure | TRPC4 inh | SKKanGAS inh | TRPC6 inh | KLF5 inh | TRPC4 PAM
9 | CCN(CC)CCN1C(=O)C(=O)/C(=C(/O)c2ccc(OC(C)C)cc2)C1c1ccncc1 (centres undefined) | i | -5 | i | -13 | i
10 | Nc1ncnc2c1ncn2[C@@H]1O[C@H](CO)[C@@H](O)[C@@H]1O | i | -1 | i | nt | i
11 | Cc1cc(C)cc(-n2c3nc4ccccc4nc3c3c(=O)n(Cc4ccco4)cnc32)c1 | i | 10 | i | -13 | i
12 | COc1ccc(N2CCN(C3CC(=O)NC3=O)CC2)cc1 (centres undefined) | i | 15 | i | 5 | i
13 | CC[C@H]1OC(=O)C[C@@H](O)[C@H](C)[C@@H](O[C@@H]2O[C@H](C)C[C@H](N(C)C)[C@H]2O)[C@@H](CC=O)C[C@@H](C)C(=O)C=C[C@]2(C)O[C@H]2[C@@H]1C | i | 111* | i | nt | i
14 | O=C(O)c1cc2sccc2s1 | i | 2 | i | -19 | i
15 | CCOC(=O)c1cnc(SC2CC(=O)N(c3cccc(OC)c3)C2=O)nc1N (centres undefined) | i | 2 | i | 4 | i
16 | COc1ccccc1OCC(O)CO (centres undefined) | i | 5 | i | 19 | i

entry | TRPC4 agonist | TRPC6 act | aSyn UTR inh | MrgX1 antagonist | IEC-6 cytotox
9 | i | i | -1 | i | -1
10 | i | i | 43 | i | nt
11 | i | i | -3 | i | -6
12 | i | i | 6 | i | -4
13 | i | i | -147 | i | nt
14 | i | i | 2 | i | -4
15 | i | i | -12 | i | 0
16 | i | i | -2 | i | -7

Sorted by molecular weight (low to high): nine of the compounds above
entry | Structure | TRPC4 inh | SKKanGAS inh | TRPC6 inh | KLF5 inh | TRPC4 PAM
1 | CC(C)c1nc2n[nH]c(N)c2c2c1CCC2 | i | 2 | i | 7 | i
10 | Nc1ncnc2c1ncn2[C@@H]1O[C@H](CO)[C@@H](O)[C@@H]1O | i | -1 | i | nt | i
4 | CCCC(CCC)C(=O)OC1C[C@H]2CC[C@@H](C1)[N+]2(C)C (some centres undefined) | i | 17 | -8.7* | -3 | i
12 | COc1ccc(N2CCN(C3CC(=O)NC3=O)CC2)cc1 (centres undefined) | i | 15 | i | 5 | i
2 | Cc1oc2cc(O)cc(C)c2c(=O)c1-c1cnn(-c2ccccc2)c1 | i | 17 | i | -38 | i
7 | CCOc1cccc(C2C(C#N)=C(N)Oc3cc(C)oc(=O)c32)c1OCC (centres undefined) | i | 5 | i | -4 | i
15 | CCOC(=O)c1cnc(SC2CC(=O)N(c3cccc(OC)c3)C2=O)nc1N (centres undefined) | i | 2 | i | 4 | i
11 | Cc1cc(C)cc(-n2c3nc4ccccc4nc3c3c(=O)n(Cc4ccco4)cnc32)c1 | i | 10 | i | -13 | i
13 | CC[C@H]1OC(=O)C[C@@H](O)[C@H](C)[C@@H](O[C@@H]2O[C@H](C)C[C@H](N(C)C)[C@H]2O)[C@@H](CC=O)C[C@@H](C)C(=O)C=C[C@]2(C)O[C@H]2[C@@H]1C | i | 111* | i | nt | i

entry | TRPC4 agonist | TRPC6 act | aSyn UTR inh | MrgX1 antagonist | IEC-6 cytotox
1 | i | i | 23 | i | 4
10 | i | i | 43 | i | nt
4 | i | i | -25 | i | -8
12 | i | i | 6 | i | -4
2 | i | i | -23 | i | -2
7 | i | i | -12 | i | 0
15 | i | i | -12 | i | 0
11 | i | i | -3 | i | -6
13 | i | i | -147 | i | nt

Remaining list, next part:
entry | Structure | TRPC4 inh | SKKanGAS inh | TRPC6 inh | KLF5 inh | TRPC4 PAM
17 | CCOC(=O)C1=C(C)NC(=O)C1CC(=O)Nc1ccccc1 (centres undefined) | i | 8 | i | 12 | i
18 | CCNc1nc(Oc2ccccc2)nc(OC(C)C(=O)OCC)n1 (centres undefined) | i | 1 | i | -56 | i
19 | NC1C=CC=C(C(=O)O)C1 (centres undefined) | i | -4 | i | nt | i
20 | O=C(/C=C/c1ccc2c(c1)OCO2)c1ccc(F)cc1 | i | 6 | i | -6 | i
21 | COCc1[nH]nc2c1C(c1ccnc3ccccc13)C(C#N)=C(N)O2 (centres undefined) | i | -6 | i | -1 | i
22 | O=C1C2CC=C(Cl)CC2C(=O)N1CNc1ccccn1 (centres undefined) | i | -8 | i | 2 | i
23 | CCc1nnc(NC(=O)CSc2nc(C)c3c(c2C#N)CCCC3)s1 | i | 7 | i | -64 | i
24 | CN1CCN(C2=Nc3ccccc3Oc3ccc(Cl)cc32)CC1 | i | -5 | i | -20&-7 | i
25 | CCCCCCn1c(C(C)O)nc2ccccc21 (centres undefined) | i | 3 | i | -7 | i
26 | COc1cccc2c(=O)c(SC(F)(F)C(F)C(F)(F)F)c(C)[nH]c12 (centres undefined) | i | 1 | i | -26 | i

entry | TRPC4 agonist | TRPC6 act | aSyn UTR inh | MrgX1 antagonist | IEC-6 cytotox
17 | i | i | -6 | i | 0
18 | i | i | 14 | i | -7
19 | i | i | 11 | i | nt
20 | i | i | -90 | i | 0
21 | i | i | 16 | i | -6
22 | i | i | -3 | i | 3
23 | i | i | -25 | i | 3
24 | i | i | 18 | i | 0&0
25 | i | i | -14 | i | -2
26 | i | i | -40 | i | 15

Profiles, quoted from the list:
Cc1oc2cc(O)cc(C)c2c(=O)c1-c1cnn(-c2ccccc2)c1 is entered as TRPC4 inh = i; SKKanGAS inh = 17; TRPC6 inh = i; KLF5 inh = -38; TRPC4 PAM = i; TRPC4 agonist = i; TRPC6 act = i; aSyn UTR inh = -23; MrgX1 antagonist = i; IEC-6 cytotox = -2
COc1ccccc1OCC(O)CO (centres undefined) is entered as TRPC4 inh = i; SKKanGAS inh = 5; TRPC6 inh = i; KLF5 inh = 19; TRPC4 PAM = i; TRPC4 agonist = i; TRPC6 act = i; aSyn UTR inh = -2; MrgX1 antagonist = i; IEC-6 cytotox = -7

Screens (PubChem BioAssay)
